Source: PubChem BioAssay
Vaccinia Venus: vaccinia inhibition (Venus reporter); actives 0.46% (n = 330,000); Vaccinia virus Venus reporter expression, fluorescence; Potency, µM (highest dose often 36.5 µM), for inactives: top-dose activity change, negative = inhibition, hits mostly inhibitors; AID 720580; active means well fitted inhibition curve with a large enough effect; inconclusive means small, poorly fitted or top-dose-only effect; inactive means no such curve, though single readings can be large or run the other way; tested in A549 cells; note: nearly all actives have a fitted effect of over 30% in size; inactives centre near -10
Vaccinia mCherry: vaccinia inhibition (mCherry reporter) | actives 0.63% (n = 310,000) | Potency, µM (series often up to 36.5 µM), for inactives: at the highest dose activity change, negative = inhibition, most hits filed as inhibitors | Vaccinia virus mCherry reporter infection, fluorescence; about a quarter of the inactives have no number; active = well fitted inhibition curve with a large enough effect; inconclusive = small, poorly fitted or top-dose-only effect; inactive = no such curve, though single readings can be large or run the other way; tested in A549 cells; note: nearly all actives have a fitted effect of over 35% in size; inactives centre near -10
* = called active by the depositor; i = inactive; ? = inconclusive; . = no result given; & = joins results of further samples; [ ] = dose if it differs, or a comment. % is set by controls: 0 for no effect and ±100 for the full control effect; potency is the fitted concentration of half-maximal effect.

Every second line gives: Vaccinia Venus	Vaccinia mCherry
> COc1ccc(-c2c(-c3cc(OC)cc(OC)c3)n(C)c3ccc(-c4cnc(OC)nc4)cc23)cc1
 : -21%	-26%
> NC(=S)NCCC[C@H](N)C(=O)O
 : -12%[87.9 µM]	i
> O=c1c(=O)n(O)c2ccccc2n1O
 : -5%	-8%
> CCCCn1c(N)c(N(CC(C)C)C(=O)CN(C)Cc2cccc(OC)c2)c(=O)[nH]c1=O
 : -10%	-14%
> O=C(COC(=O)c1ccc(Cl)nc1)NCc1ccco1
 : 1%	i
> Cc1cc2nnc(SCc3ccc4c(c3)OCO4)n2c2ccccc12
 : -3%	-1%
> CCc1cc(CNC(=O)c2cc(COc3ccc(C)nc3)on2)on1
 : -9%	-12%
> Oc1ccc(N2CCN(c3ccnc4cc(Cl)ccc34)CC2)cc1
 : 5%	?
> CC1C(c2ccccc2)OCCN1C(=S)Nc1ccc(S(=O)(=O)N2CCCCC2)cc1 (configuration not stated)
 : -5%	i
> CCOC(=O)/C(C#N)=C/C1=C(N2CCCC2)CC(C)(CC)OC1 (configuration not stated)
 : -25%	.
> Cc1ccccc1NCc1cccn1-c1nnc(N2CCC(C)CC2)s1
 : -3%	-6%
> O=C(O)c1ccc(NC(=O)c2cn(-c3ccccc3)nc2-c2ccc(Br)cc2)cc1
 : 6%	-7%[7.34 µM]
> Cc1ccc(S(=O)(=O)N2CCN(C(=O)N3CCCC3)CC2)cc1
 : -8%	i
> CCn1c(SCC(=O)N/N=C/c2ccc(C)o2)nnc1-c1ccc(C(C)(C)C)cc1
 : -18%	-19%
> COc1ccccc1Cc1c(-c2ccco2)nc2ccc(Br)cn12
 : 11%	i
> Cc1ccc(OCc2ccc(C(=O)N3CCCC3)o2)c([N+](=O)[O-])c1
 : -13%	-22%
> Cc1ccc(S(=O)(=O)n2c(N)nc3cc(C)c(C)cc32)cc1
 : -6%	1%
> CCC1(C)CC(C(CC(=O)O)c2ccc(C)cc2)CCO1 (configuration not stated)
 : -5%	-5%
> CC[n+]1c(/C=C2\C=C(C)CC(C)(C)C2)sc2ccccc21
 : -10%	i
> Cc1ccc(CNC(=O)CCC(=O)N2CC(C)Oc3ccccc32)cc1 (configuration not stated)
 : -17%	-19%
> C=CCn1c(COc2ccccc2C)nnc1SCC(=O)O
 : 25%	.
> On1c(-c2ccc(Cl)cc2Cl)nc2ncccc21
 : -2%	0%
> COc1ccc(F)cc1-c1cc(C(=O)NCc2ccc(C(F)(F)F)cc2)[nH]n1
 : -8%	12%
> Cc1cccc(Nc2nnc(SCC(O)=C(C#N)c3nc4ccccc4[nH]3)s2)c1
 : 11%	-7%
> O=C(C[n+]1cccc2cccc(O)c21)c1ccc(Cl)cc1
 : 4%	i
> CC(C)C(=O)N1CCN(c2ccccc2NC(=O)c2ccc3c(c2)OCCO3)CC1
 : -11%	?
> CC(C)(CNS(=O)(=O)c1cccs1)N1CCOCC1
 : 0%	i
> CCOc1ccc(NC(=O)CSc2nnc3c(n2)[nH]c2ccc(S(=O)(=O)N4CCOCC4)cc23)cc1
 : -24%	-27%
> C#CCn1c(=O)c2c(ncn2C)n(C)c1=O
 : -24%&-15%	-1%
> NC(=O)CCC(NC(=O)c1ccc(Cl)cc1)C(=O)NCCc1ccc2c(c1)OCCO2 (configuration not stated)
 : -10%	i
> CC(NC(=O)COC(=O)CCc1nc2ccccc2c(=O)[nH]1)c1ccccc1 (configuration not stated)
 : 0%	-19%
> COc1ccc(C(C(=O)NC2CCCCC2)N(C(=O)c2ccco2)c2ccccc2C(C)=O)cc1OC (configuration not stated)
 : 7%	11%
> CCc1ccc(C2NC(=S)NC3=C2C(=O)CCC3)cc1 (configuration not stated)
 : -22%	i
> O=C(CSc1nnnn1Cc1ccccc1)NC1CCCCC1
 : -17%	i
> Cc1cc2oc3c(c(=O)c2cc1C)C(c1cccc(Br)c1)N(Cc1ccco1)C3=O (configuration not stated)
 : -26%	?
> O=C1CC(=O)N(c2ccc(Cl)cc2)C(=O)N1
 : 9%	-1%
> Cc1cccc(-n2c(CNC(=O)COc3ccccc3)nnc2SCC(=O)Nc2nccs2)c1
 : -24%	-28%
> O=c1cc(-c2ccccc2)nc(SCc2ccc(F)cc2)[nH]1
 : -4%	-12%
> COc1cccc(NC(=O)N(C)C[C@H]2OCc3cn(nn3)CCCC(=O)N([C@@H](C)CO)C[C@@H]2C)c1
 : -20%	-18%
> Cc1ccc(C2CC(c3cccs3)=NN2C(=O)CSC2=NN3CCCC(=O)N=C3S2)cc1 (configuration not stated)
 : -13%	14%
> Cc1ccc(S(=O)(=O)CCC(=O)OCc2ccccc2F)cc1
 : 2%	2%
> CCC(C)n1c(=S)[nH]c2ccccc2c1=O (configuration not stated)
 : -17%	i
> CC1=C(C(=O)OCC2CCCO2)C(c2ccccc2OC(C)C)C2=C(CC(c3ccco3)CC2=O)N1 (configuration not stated)
 : ?	-15%
> O=C(NCc1cccc(OC(F)(F)F)c1)c1ccc2c(c1)S(=O)(=O)c1cc(Cl)ccc1C2=O
 : -20%	?
> CC1=CC2(C)C(C3C(C)=CC2(C)C(=O)C3(C)O)C(C)(O)C1=O (configuration not stated)
 : 2%	i

Among those listed so far, seven have a Cl atom:
Every second line gives: Vaccinia Venus	Vaccinia mCherry
> O=C(COC(=O)c1ccc(Cl)nc1)NCc1ccco1
 : 1%	i
> Oc1ccc(N2CCN(c3ccnc4cc(Cl)ccc34)CC2)cc1
 : 5%	?
> On1c(-c2ccc(Cl)cc2Cl)nc2ncccc21
 : -2%	0%
> O=C(C[n+]1cccc2cccc(O)c21)c1ccc(Cl)cc1
 : 4%	i
> NC(=O)CCC(NC(=O)c1ccc(Cl)cc1)C(=O)NCCc1ccc2c(c1)OCCO2 (configuration not stated)
 : -10%	i
> O=C1CC(=O)N(c2ccc(Cl)cc2)C(=O)N1
 : 9%	-1%
> O=C(NCc1cccc(OC(F)(F)F)c1)c1ccc2c(c1)S(=O)(=O)c1cc(Cl)ccc1C2=O
 : -20%	?

(listing goes on)
Every second line gives: Vaccinia Venus	Vaccinia mCherry
> Cc1ccc(NC(=O)CSc2nnc(NC(=O)c3ccc(S(=O)(=O)N4CCOCC4)cc3)s2)cc1
 : -7%	-6%
> CN(C)c1ccc(/C=N/NC(=O)CN(c2ccccc2Cl)S(C)(=O)=O)cc1Br
 : ?	.
> Cc1ccc(C(=O)Cn2nnc(-c3ccccc3-n3cnnn3)n2)cc1
 : 0%	-10%
> O=C1NCCN/C1=C\C(=O)c1ccccc1
 : 0%	-5%
> CCOC(=O)c1cccc(NC(=O)c2oc3c(c2C)-c2[nH]ncc2CC3)c1
 : -3%	i
> COC(=O)c1ccc(Nc2nc(-c3ccccc3Cl)nc3ccccc23)cc1
 : -19%	-29%
> CCOc1cc(CNc2ccccc2)cc(Br)c1OCC(=O)NC(C)(C)C
 : ?	?
> CCOC(=O)c1c(NC(=O)CSc2nnc(-c3ccccc3)o2)sc(C(C)=O)c1C
 : -14%	i
> COc1ccc2nc3c(cc2c1)c(NC(=O)C1CCCO1)nn3CC(C)C (configuration not stated)
 : 0%	.
> COC(=O)c1c(NC(=O)CC2Nc3ccccc3NC2=O)sc(C)c1C (configuration not stated)
 : -9%	-20%
> CC(Sc1nnc2n1CCCCC2)C(=O)Nc1ccc(S(N)(=O)=O)cc1 (configuration not stated)
 : -11%	-18%
> CCCC(=O)C1=C(O)C(C(=O)OC)C(C)(C)CC1=Nc1ccc(Br)cc1 (configuration not stated)
 : -17%	-23%
> COc1ccc(C(=S)N2CCOCC2)cc1OC(=O)c1cc(OC)c(OC)c(OC)c1
 : -18%	-8%
> CCc1cccc(C)c1NS(=O)(=O)c1cccs1
 : -1%	-5%
> CCn1cc(C(=O)OCC(=O)Nc2c(C)cccc2C)c(=O)c2ccc(C)nc21
 : -8%	0%
> Cc1ccc(S(=O)(=O)N2CCCC(C(=O)NCC3CCCO3)C2)cc1 (configuration not stated)
 : 1%	12%
> O=C(N/N=C/C=C/c1cccc([N+](=O)[O-])c1)C(O)c1ccccc1 (configuration not stated)
 : -8%	-1%
> COC(=O)c1c(NC(=O)COC(=O)Cn2cnc3ccccc32)sc(C)c1C
 : -17%	-12%
> COc1ccccc1CNC(=O)c1ccc(N2Cc3cccc(OC)c3Oc3ncccc32)s1
 : -7%	1%
> Nc1c(N=Nc2ccc([N+](=O)[O-])cc2)c(S(=O)(=O)O)cc2cc(S(=O)(=O)O)c(/C=C/c3ccccc3)c(O)c12
 : -9%	?
> COc1cc2[nH]c(=O)n(CCCC(=O)NCCc3ccccc3)c(=O)c2cc1OC
 : -21%	-26%
> O=S(=O)(NCCOc1ccccc1Cl)c1ccc2oc3ccccc3c2c1
 : ?	-10%
> N/C(=N\C(=S)Nc1ccc2c(c1)OCO2)c1ccccc1
 : -2%	20%
> COc1ccc(C(=O)Nc2cc3c(cc2OC)CCCC3)cc1Br
 : -15%	i
> COCCSc1ccccc1C(=O)Nc1cc(C)ccn1
 : 3%	-10%
> O=C(O)CC(C(=O)NC1CCCCC1)C1CCCO1 (configuration not stated)
 : -7%	-9%
> COc1ccc(Nc2ccnc(Nc3ccc(OC)cc3)n2)cc1
 : ?	?
> O=C(CSc1nncn2c1cc1sccc12)Nc1ccccc1C(F)(F)F
 : -4%	-6%
> CCOc1ccc(CNC(=O)CCc2c(C)nn(-c3ccc(N4CCOCC4)nn3)c2C)cc1
 : 2%	-8%
> CCOC(=O)n1c(=O)n(Cc2c(Cl)cccc2Cl)c2ccccc21
 : ?	.
> CCCc1cc(=O)n2[nH]c(-c3cc(OC)c(OC)c(OC)c3)nc2n1
 : -6%	.
> COc1cccc(-c2cc(C(=O)N3CCN(c4ccccc4OC)CC3)no2)c1
 : -7%&2%	-23%&-1%
> Cc1cc(S(=O)(=O)N2CCOCC2)ccc1OCC(=O)NCc1ccco1
 : -7%	-11%
> Cc1ccc(NC(=O)CSc2nccn2C)cc1F
 : -7%	-8%
> Cc1ccc(-c2cccc(=O)o2)cc1
 : -14%	-5%
> O=S(=O)(NC1CC1)c1ccc(S(=O)(=O)N2CCN3CCCC3C2)cc1 (configuration not stated)
 : -5%	-13%
> CCOC(=O)c1c(C)n(C)c2cc(Br)c(C)cc12
 : -7%	?
> O=C(Cc1ccccc1)Nc1c(C(=O)N2CCCCCC2)cnn1-c1ccccc1
 : -2%	-13%
> CC(C)Cn1c2c(c(O)c(C(=O)Nc3nccs3)c1=O)CCCC2
 : -9%	i
> O=C(COC(=O)CN1C(=O)C2CCCCC2C1=O)NNC(=O)c1ccc(Cl)cc1 (configuration not stated)
 : 0%	-13%
> CCOc1ccccc1N(CC(=O)NC1CCCCC1)S(=O)(=O)c1ccc(C)cc1
 : -17%	-25%
> O=C(O)CCN1C(=O)C2C3C=CC(C3)C2C1=O (configuration not stated)
 : 7%	?
> Cc1ccccc1/C=C\c1nc2ccccc2c(=O)n1Cc1ccccc1
 : -17%	-5%
> CCOC(=O)N1CCC(NC(=O)Cn2cccc2C(=O)c2ccccc2)CC1
 : -12%	-21%
> COc1c(C)cc(Br)cc1C(=O)Nc1ccc(Cc2ccncc2)cc1
 : -9%	-2%
> O=C(NCCc1ccccc1)c1c[nH]c2ccccc2c1=O
 : -6%	-4%
> COCCN(C(=O)COC(=O)c1oc2ccc(OC)cc2c1C)c1c(N)n(Cc2ccccc2)c(=O)[nH]c1=O
 : -11%	-17%
> O=[N+]([O-])c1ccc(S(=O)(=O)N2CCN=C2SCc2cccnc2)cc1
 : ?	?
> Cc1cccc(NC(=O)Cn2c(=O)n(CCC(C)C)c(=O)c3cccnc32)c1
 : -3%	-21%
> Cc1cc(C(=O)COC(=O)CNC(=O)c2ccc(Cl)c(Cl)c2)c(C)n1Cc1ccco1
 : -5%	6%
> CC(CCc1ccccc1)NC(=O)CNC(=O)COc1ccccc1 (configuration not stated)
 : -8%	-5%
> COc1cc(S(=O)(=O)Nc2cc(C)cc(C)c2)ccc1F
 : ?	?
> C(=N\Nc1nc2ccccc2s1)/c1cccs1
 : -19%	-20%
> CC(=O)c1ccc2oc3ccccc3c(=O)c2c1
 : -6%&-2%	-9%
> COc1ccc(-c2csc3ncnc(Nc4ccc(OC)c(OC)c4)c23)cc1
 : -18%	12%
> BrC(=C\c1ccccc1)/C=N/N1CCN(Cc2ccccc2)CC1
 : -21%	.
> O=C(C[C@H]1C/C=C\C[C@@H](Cc2ccc(F)cc2)C(=O)O[C@H](c2ccccc2)CNC1=O)NCCO
 : -17%	i
> COc1cccc(/C=C/C(=O)OCC(=O)NCCC2=CCCCC2)c1
 : -13%	-2%
> NS(=O)(=O)c1ccc(CNC(=S)Nc2ccc(F)c(Cl)c2)cc1
 : -2%	-10%
> O=C(CCC(=O)OCC(=O)c1ccc(Cl)cc1Cl)Nc1cccc2cccnc12
 : -7%	-14%

(listing goes on)
Every second line gives: Vaccinia Venus	Vaccinia mCherry
> Cc1ccc(C)c(N2CCN(S(=O)(=O)c3ccc4c(c3)C(C(C)C)C(=O)N4)CC2)c1 (configuration not stated)
 : -15%	-8%
> Cn1c(O)c(C=Nc2cccc(C(F)(F)F)c2)c(=O)n(C)c1=O
 : -12%	i
> O=C(Cc1coc2cc(O)ccc12)NNC(=O)c1cccs1
 : 9%	?
> Cc1ccc2nc(C)cc(C(=O)N3CCCC(CO)(Cc4ccccc4C)C3)c2c1 (configuration not stated)
 : 1%	-7%
> CC(=O)c1ccccc1NC(=O)CC1(CC(=O)O)CCCCC1
 : -4%	1%
> CCOC(=O)N[C@H](Cc1c[nH]c2ccccc12)C(=O)NC1CC1
 : -12%	-16%
